E coli growth = inhibitors of Escherichia coli growth; OD600, 23 h; stronger effect = lower value; OD600 absorbance (no concentration beside the values); actives 0.21% (n = 330,000);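 active = OD600 absorbance below the run mean of sample wells minus 3.6 SD, in any replicate, cut at about 0.56 in these data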;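 note: stock transfer was 300 nL into about 60 µL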
FGF22 binding = binders of recombinant human FGF22 by thermal shift | Q9HCT0 | SYPRO orange fluorescence; percent of sucrose octasulfate shift, DMSO zero | actives 1.5% (n = 340,000) | AID 651658 | calls only at 9.99 µM;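 active = melting point raised past a set limit in the mean and every replicate; three in four hits are not shown here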
Target sequence (Q9HCT0 whole entry, looked up): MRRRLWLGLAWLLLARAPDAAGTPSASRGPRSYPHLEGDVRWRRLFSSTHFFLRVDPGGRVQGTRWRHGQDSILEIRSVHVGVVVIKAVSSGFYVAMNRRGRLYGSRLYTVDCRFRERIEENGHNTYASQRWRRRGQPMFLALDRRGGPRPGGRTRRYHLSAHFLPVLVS
rRNA inh HTS = inhibitors of bacterial rRNA selective over humanized ribosomes. E. coli WT GFP vs humanized-ribosome RFP mutants, fluorescence, 24 h; stronger effect = lower value; DMSO median 0, no signal -100. GFP signal change (wild-type ribosome), % (test concentration not listed). actives 1.6% (n = 350,000). AID 720706;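 active = significant combined selectivity score with lowered wild-type GFP, culture density cut under 30%, mutant RFP and density less affected; inactive = any of these conditions unmet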; note: one replicate is shown; some compounds called inactive have numbers as strong as hits
Bfl-1 A1 inh = inhibitors of the anti-apoptotic protein A1, read as caspase activation; MEF A1-2A-BIM cells, Caspase-Glo 3/7 luminescence, 3 h; percent of clofoctol response, vehicle zero; caspase activation, % (concentration not given with the values); actives 0.066% (n = 330,000);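 active = over half of replicate activation scores above 10%, or exactly half above 10 with the replicate mean above 10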;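 note: wells of about 30 µL received 50 nL stock; many hits fall short of the cut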
T cruzi repl = blocks replication of Trypanosoma cruzi. T. cruzi beta-gal in NIH3T3, luminescence, 90 h. inhibition, % (concentration not given with the values). actives 1.4% (n = 300,000). AID 1885;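 active = mean inhibition across valid replicates above about 55%, limit read from the data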;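 note: signal also drops with host cell toxicity which is not excluded here; 0% = plate median of DMSO wells and 100% = zero luminescence signal; higher percent means less beta-gal luminescence so fewer parasites; stock transfer was 50 nL into about 50 µL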
AF4-AF9 inh = blocks AF4 peptide binding to human AF9. P42568. AlphaScreen, biotin-AF4 peptide binding to FLAG-AF9. inhibition, % at 10 µM. actives 0.47% (n = 350,000). AID 651704;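 active = every replicate reaching a set inhibition limit, whatever the replicate mean, cut at about 25% in these data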;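 note: 0% = plate neutral control median and 100% = total signal loss; the record names both 10 and 1 µM as test concentration; the first replicate is given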
Target sequence (P42568 whole entry, looked up): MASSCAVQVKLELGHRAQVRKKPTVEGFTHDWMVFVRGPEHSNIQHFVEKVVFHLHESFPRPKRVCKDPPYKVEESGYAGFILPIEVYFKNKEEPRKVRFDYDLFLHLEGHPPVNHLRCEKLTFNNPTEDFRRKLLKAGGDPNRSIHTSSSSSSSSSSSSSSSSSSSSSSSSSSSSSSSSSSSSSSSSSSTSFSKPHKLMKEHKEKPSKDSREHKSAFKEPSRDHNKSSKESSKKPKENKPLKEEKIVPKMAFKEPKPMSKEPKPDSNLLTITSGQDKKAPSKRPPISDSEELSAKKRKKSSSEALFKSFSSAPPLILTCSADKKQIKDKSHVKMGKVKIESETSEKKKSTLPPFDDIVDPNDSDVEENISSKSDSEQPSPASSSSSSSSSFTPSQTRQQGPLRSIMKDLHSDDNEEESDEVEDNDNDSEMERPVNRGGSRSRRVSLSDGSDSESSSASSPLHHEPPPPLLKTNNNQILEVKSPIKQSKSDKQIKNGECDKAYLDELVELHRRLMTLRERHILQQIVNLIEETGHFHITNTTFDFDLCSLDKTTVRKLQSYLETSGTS
Beta apoptosis = blocks beta cell apoptosis; protection from apoptosis, % (test concentration not listed); AID 435005; actives 0.8% (n = 300,000); INS-1E cytokine-induced death, ATP luminescence, 48 h; percent of positive-control rescue, neutral wells zero;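 active = all replicates at 75% or more, or half of them and the mean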;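 note: 0% = cytokine-treated negative control wells and 100% = positive control rescue; higher means more ATP so stronger rescue from cytokine killing; wells of about 40 µL received 100 nL stock; the first replicate is given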
UCH37 DUB inh = human UCH37 deubiquitinating enzyme inhibition. Q9Y5K5. purified proteasome/UCH37, Ub-AMC cleavage fluorescence. inhibition, % (no concentration beside the values). actives 0.33% (n = 330,000);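 active = mean of two replicates above 20%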;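 note: 0% = compound-free wells with enzyme and 100% = wells lacking proteasome; stock transfer was 100 nL into about 20 µL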
Target sequence (Q9Y5K5 whole entry, looked up): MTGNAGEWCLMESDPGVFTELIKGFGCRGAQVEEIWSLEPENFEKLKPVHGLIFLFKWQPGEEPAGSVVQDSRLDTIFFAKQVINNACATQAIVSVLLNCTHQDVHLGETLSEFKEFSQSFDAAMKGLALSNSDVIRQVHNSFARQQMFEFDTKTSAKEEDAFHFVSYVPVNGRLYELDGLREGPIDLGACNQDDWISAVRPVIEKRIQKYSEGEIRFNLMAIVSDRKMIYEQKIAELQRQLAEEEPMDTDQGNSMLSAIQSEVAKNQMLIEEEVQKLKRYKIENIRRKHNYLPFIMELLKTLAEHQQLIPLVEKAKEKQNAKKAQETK
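assay system = human UCH37 enzyme supplied as purified proteasome complex | amount = proteasome at 0.15 nM in the dispensed enzyme solution | schedule = 30 min compound-proteasome preincubation then 25 min substrate reaction, room temperature | measured by = fluorescence, ex 355 nm, em 460 nm | benchmarks = no-proteasome wells (full inhibition) and compound-free wells (no inhibition)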
rRNA inh HTS OD600 = recorded beside rRNA inh HTS, whose call it bears; OD600 change, %; measured here: OD600 growth;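 optical density of the mix in the first replicate; 0 = DMSO median and -100 = no signal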
rRNA inh HTS RFP = also measured in rRNA inh HTS; calls as there; RFP signal change, %; measured here: RFP humanized mutant strains;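 first replicate; 0 = DMSO median and -100 = no signal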
* hit, by the source's call; i = inactive; . = not tested or not shown.

SMILES | E coli growth | FGF22 binding | rRNA inh HTS | rRNA inh HTS OD600 | rRNA inh HTS RFP | Bfl-1 A1 inh | T cruzi repl | AF4-AF9 inh | Beta apoptosis | UCH37 DUB inh
Cc1coc2cc3oc(=O)c(CCC(=O)NC4CC4)c(C)c3cc12 | 0.72 | i | -4 | 1 | -11 | 0.1 | 12 | -3.3 | . | -32
C1=Nc2c(NCc3ccccc3)ncnc2Oc2ccccc21 | 0.75 | . | . | . | . | 0.3 | 15 | . | -1 | 1.6
CC(C)C(NC(=O)C1CCCCC1)C(=O)NC1CCCC(C)C1C (centres undefined) | 0.68 | . | . | . | . | 1.3 | 5 | . | -2 | 3.6
Cc1sc2ncnc(SCc3ccco3)c2c1C | 0.75 | . | . | . | . | 0.6 | -13 | . | 3 | -3.6
COc1ccc(Cl)cc1S(=O)(=O)Nc1ncn[nH]1 | 0.69 | i | 6 | 2 | -0.8 | -0.3 | 5 | 2.2 | -3 | 2.4
Fc1ccc(-n2nnnc2-c2cnc(-c3cccs3)nc2C(F)(F)F)cc1 | 0.69 | . | . | . | . | 0.7 | 9 | . | 26 | -0.1
CN(CCOc1ccccc1)C(=O)CNC(=O)c1ccc(C(C)(C)C)cc1 | 0.63 | i | -38 | -65 | -2.5 | -0.3 | . | 0.1 | -7 | -0.2
COc1cc(NC(=O)c2ccc(NC3=NC4CS(=O)(=O)CC4S3)cc2)cc(OC)c1OC (centres undefined) | 0.78 | i | 6 | 4 | -4.1 | . | 3 | 4.6 | -6 | 7.2
CC(C)c1ccc(C(CC(=O)O)N2Cc3ccccc3C2=O)cc1 (centres undefined) | 0.65 | i | 3 | 9 | -2.3 | 0.1 | 10 | -0.8 | -10 | 62*
CCOc1ccc(-n2c(SCC(=O)NCc3ccco3)nc3c(c2=O)SCC3)cc1 | 0.69 | . | . | . | . | -0.1 | . | . | -3 | -0.6
CCC(NC(=O)NC1=NCCS1)(C(F)(F)F)C(F)(F)F | 0.68 | . | . | . | . | -0.4 | -8 | . | -15 | 1.1
COc1ccc2c(c1)CCC/C2=N\OC(=O)c1ccccc1F | . | . | -1 | 2 | -1.2 | 0.7 | -4 | -0.8 | -12 | .
Cc1sc2ncnc(N3CCC(C(=O)NNC(=O)COc4ccc(Br)cc4)CC3)c2c1C | 0.69 | i | -22 | -46 | 0.4 | 0.4 | 0 | -0.4 | -2 | 5.9
COc1ccc(/C=C/c2c([N+](=O)[O-])c(=O)n(C)c(=O)n2C)cc1OC | 0.74 | . | . | . | . | 0.3 | -5 | . | -8 | 7.3
COc1ccc(N(C)S(=O)(=O)c2cccc(C(=O)NC3CCCC(C)C3C)c2)cc1 (centres undefined) | 0.7 | i | -1 | -35 | -5.7 | 0.3 | 14 | 1.5 | 8 | 2.8
Cc1ccc(NC(=O)C2(N3CCC3=O)CCCCC2)cc1 | 0.71 | i | 1 | -7 | 3.2 | -0.9 | -13 | -3.2 | 5 | 4.2
CC1CCN(Cc2ccc(-c3nnn(CC(=O)Nc4ccccc4Cl)n3)cc2)CC1 | 0.7 | i | 11 | -6 | 1.8 | 1.3 | 24 | -1.0 | . | 2.1
COc1ccc(OC)c(Cc2nnc(CCC(=O)N3CCCCCC3)o2)c1 | 0.73 | i | 8 | 6 | 2.5 | -0.4 | 12 | -1.4 | -1 | 1.0
NC(=S)COc1ccccc1 | 0.67 | i | 7 | 8 | -0.2 | 0.3 | -17 | 0.7 | -5 | 2.6
O=Cc1ccc(N2CCCC2)c(F)c1 | 0.71 | . | . | . | . | -1.1 | -1 | . | -7 | 8.6
CCOc1cc(CNCc2ccccn2)cc(Cl)c1OC | 0.68 | i | 8 | 2 | -2.1 | 2.3 | 8 | 4.6 | . | 2.3
COc1nc(-c2ccccc2)ccc1-c1noc(-c2ccccc2F)n1 | 0.75 | . | . | . | . | -1.0 | -3 | . | -1 | -12
CN(C)c1ccc(/C=C(/NC(=O)c2ccccc2)C(=O)N2CCCC2)cc1 | 0.69 | i | 6 | 6 | 0.9 | 0.2 | -5 | -2.9 | 0 | 12
S=c1[nH]nc(COc2ccc(Cl)cc2)n1C1CCCCC1 | 0.68 | i | -7 | -15 | 0.5 | 0.8 | 35 | -16 | 9 | 3.1
COc1ccc(C(=O)/C=C/Nc2cc(C)ccn2)cc1 | 0.66 | i | -16 | -12 | -2.8 | -12 | 5 | 0.6 | -19 | -13

Part of the list above in order of molecular weight, largest number first.
SMILES | E coli growth | FGF22 binding | rRNA inh HTS | rRNA inh HTS OD600 | rRNA inh HTS RFP | Bfl-1 A1 inh | T cruzi repl | AF4-AF9 inh | Beta apoptosis | UCH37 DUB inh
CCOc1ccc(-n2c(SCC(=O)NCc3ccco3)nc3c(c2=O)SCC3)cc1 | 0.69 | . | . | . | . | -0.1 | . | . | -3 | -0.6
Fc1ccc(-n2nnnc2-c2cnc(-c3cccs3)nc2C(F)(F)F)cc1 | 0.69 | . | . | . | . | 0.7 | 9 | . | 26 | -0.1
CN(C)c1ccc(/C=C(/NC(=O)c2ccccc2)C(=O)N2CCCC2)cc1 | 0.69 | i | 6 | 6 | 0.9 | 0.2 | -5 | -2.9 | 0 | 12
CC(C)C(NC(=O)C1CCCCC1)C(=O)NC1CCCC(C)C1C (centres undefined) | 0.68 | . | . | . | . | 1.3 | 5 | . | -2 | 3.6

Next results.
SMILES | E coli growth | FGF22 binding | rRNA inh HTS | rRNA inh HTS OD600 | rRNA inh HTS RFP | Bfl-1 A1 inh | T cruzi repl | AF4-AF9 inh | Beta apoptosis | UCH37 DUB inh
CCOc1ccc(N2C(=O)CC(Sc3nc(CC(C)C)ccc3C#N)C2=O)cc1 (centres undefined) | 0.66 | i | -46 | -56 | -3.3 | -0.1 | -9 | 1.9 | 0 | 5.2
CCOc1ccc(CCNC(=O)COC(=O)c2ccc(OC)c(OC)c2OC)cc1OCC | 0.69 | i | 1 | 2 | -0.1 | -0.1 | 0 | 0.9 | -5 | 1.4
COC(=O)C1C(=O)c2c([nH]c(C(=O)OCCSC)c2C)CC1C (centres undefined) | 0.78 | i | -4 | -15 | -1.6 | -0.7 | -6 | 0.1 | 0 | -1.5
CSc1ccccc1NC(=O)c1ccc(CN2CCOCC2)cc1 | 0.64 | i | 3 | 1 | -2.8 | 0.1 | 2 | -0.4 | -2 | 1.2
CC1CCN(C2=C(NS(=O)(=O)c3ccccc3)C(=O)c3ccccc3C2=O)CC1 | 0.72 | i | -24* | -8.4* | -3.7* | -0.3 | 9 | 57* | -2 | 3.3
CCOC(=O)Cc1c(C)nc2c(-c3ccccc3)cnn2c1C | 0.7 | i | 9 | 4 | -7.9 | 0.5 | 20 | -10 | 2 | 2.1
CCOC(=O)Nc1ccc(NC(=O)c2c(OC)cccc2OC)cc1 | 0.68 | i | 15 | 20 | -0.2 | 0.5 | -6 | 1.2 | -7 | 0.6
CCOc1ccc(OCCN(C)Cc2ccccc2)cc1 | 0.68 | . | . | . | . | -0.1 | 16 | . | . | 2.1
CSc1ccc(CN(C)C(=O)c2cc(=O)c3ccccc3o2)cc1 | 0.64 | i | -9 | -14 | 1.6 | 0.0 | -5 | 3.2 | -2 | 1.6
O=C(CSc1nnc(-c2ccncc2)n1Cc1ccccc1)NC1CCCc2ccccc21 (centres undefined) | 0.7 | i | -7 | -16 | -3.8 | -0.1 | 50 | -2.8 | -1 | 6.6
CCSc1nnc(-c2ccc(S(=O)(=O)N3CCOCC3)cc2)n1CC1CCCO1 (centres undefined) | 0.72 | . | . | . | . | 0.2 | -5 | . | -6 | 1.9
CCCN(C(=O)CSc1nc2ccccc2n1CC)C1CCS(=O)(=O)C1 (centres undefined) | 0.69 | i | -1 | 0 | 0.3 | 0.1 | -8 | -1.5 | -2 | 0.4
COC(=O)[C@@]12CCCN1[C@H](c1ccc(-c3ccccc3)cc1)[C@@H]1C(=O)N(C)C(=O)[C@@H]12 | . | i | -10 | -1 | -5.5 | -0.1 | -2 | 0.8 | -11 | 3.1
CCCn1c(SCC(=O)N(C)CC(=O)Nc2ccc(C)cc2)n[nH]c1=O | 0.72 | i | . | . | . | -0.3 | . | -0.6 | -1 | 1.1
CC(C)(C)c1ccc(C2(C)NC(=O)NC2=O)cc1 (centres undefined) | 0.65 | i | 1 | 1 | -1.0 | 1.1 | 3 | -1.0 | -4 | 1.6
CCOC(=O)C1C(=O)C=C(/C=C/c2ccccc2)CC1c1ccc(Cl)cc1 (centres undefined) | 0.78 | . | . | . | . | -1.0 | 16 | . | -4 | 2.6
CCN(CC)c1ccc(/C=N/NC(=O)Cc2nnc(NC(=O)Nc3ccccc3)s2)cc1 | . | i | -6 | 9 | 1.7 | 0.5 | -15 | -1.2 | -14 | .
O=C(NCC(=O)N1CCN(C(=O)c2ccco2)CC1)c1ccc(Cl)cc1 | 0.68 | . | 1 | 6 | -3.4 | -0.2 | 0 | 1.1 | . | 5.8
Cc1ccc(S(=O)(=O)c2nc(-c3ccco3)oc2NCC2CCCO2)cc1 (centres undefined) | 0.7 | . | . | . | . | 0.2 | . | . | -1 | -1.7
S=C1NC2(CCCCC2)Nc2ccccc21 | 0.66 | i | 6 | 5 | -0.6 | 1.3 | -3 | 2.5 | 5 | -5.9
CC(=O)Nc1ccc(NC(=O)C(F)(F)F)cc1 | 0.75 | . | . | . | . | -0.5 | -19 | . | 2 | 3.3
COc1cc(OC)cc(-c2c(-c3ccc(C(C)=O)cc3)c3cc(-c4cccc5[nH]ccc45)ccc3n2C)c1 | 0.77 | i | 7 | -2 | -6.2 | 1.0 | . | -2.3 | 3 | -36
Cc1ccc(C)c(N2CCN(C(=O)c3ccc(Cn4c(=S)[nH]c5ccc(N6CCOCC6)cc5c4=O)cc3)CC2)c1 | 0.73 | i | 6 | -8 | 5.7 | 0.1 | 75* | 1.1 | -4 | -96
Cc1ccc(C(=O)NCC(=O)N/N=C/c2sccc2C)cc1[N+](=O)[O-] | . | i | 18 | 10 | 1.3 | -0.2 | 0 | -0.9 | 3 | .
CCC(C(=O)OC)n1cnc2c(nnn2-c2ccc(OC)cc2)c1=O (centres undefined) | 0.71 | . | . | . | . | 0.7 | -13 | . | -7 | 1.1
CCOC(=O)c1cc(-c2ccc(F)cc2)n(CC(=O)N2CCCC2)c1C | 0.79 | . | . | . | . | 0.5 | -3 | . | 3 | 0.0
c1ccc2oc(NC3=NCN(CC4CCCO4)CN3)nc2c1 (centres undefined) | 0.73 | . | . | . | . | -0.2 | -11 | . | -8 | 1.7
Cc1ccc(C(=O)NCC(C)(C)N2CCOCC2)s1 | 0.72 | . | . | . | . | 0.5 | 9 | . | -6 | 2.1
COC(=O)c1ccc(Oc2coc3cc(OCc4ccc([N+](=O)[O-])cc4)ccc3c2=O)cc1 | 0.68 | i | 10 | -2 | -1.2 | 1.1 | 5 | 3.6 | . | -2.8

Retrieved by structure from above:
SMILES | E coli growth | FGF22 binding | rRNA inh HTS | rRNA inh HTS OD600 | rRNA inh HTS RFP | Bfl-1 A1 inh | T cruzi repl | AF4-AF9 inh | Beta apoptosis | UCH37 DUB inh
COc1ccc(C(=O)/C=C/Nc2cc(C)ccn2)cc1 | 0.66 | i | -16 | -12 | -2.8 | -12 | 5 | 0.6 | -19 | -13
CCC(NC(=O)NC1=NCCS1)(C(F)(F)F)C(F)(F)F | 0.68 | . | . | . | . | -0.4 | -8 | . | -15 | 1.1
CC(=O)Nc1ccc(NC(=O)C(F)(F)F)cc1 | 0.75 | . | . | . | . | -0.5 | -19 | . | 2 | 3.3

The list is partial (hit frequency here may not be typical).
